Screening results as filed in PubChem BioAssay.
NPYLR7 ag = mosquito NPYLR7 agonism; 0.15% of 270,000 active; activation, % at 10 µM; HEK293T NPYLR7/Galpha15, GCaMP6s calcium fluorescence; AID 1259423; in the data active means activation above about 40%;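 further: 0% = vehicle and 100% = reference agonist at the receptor; some compounds past the cut are filed as inactive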
NPYLR7 ag max-min = second read-out of NPYLR7 ag, no call of its own (marks repeat the call); activation, %; measured here: Max-Min RFU normalised activation; some inactives read as strong as hits;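 span of the calcium signal over five minutes; 0% = vehicle and 100% = native peptide agonist; compound fluorescence can raise it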
An asterisk follows results filed as active; & = joins results of further samples.

A first look, 5 compounds:
The line under a structure holds: NPYLR7 ag	NPYLR7 ag max-min
COc1cc(CN2CCn3nc(C(=O)NCCc4ccccn4)cc3C2=O)cc(OC)c1
  -4	-3
Clc1ccc2c(NN=Cc3cccnc3)ccnc2c1
  -2	-2
CN(Cc1ccc(Cl)s1)C(=O)CN(C)C1CCS(=O)CC1 (stereo not drawn)
  3	3
Cc1cc(I)ccc1NC(=O)CN(Cc1ccco1)C1CCS(=O)(=O)C1 (stereo not drawn)
  5	13
N#C/C(=C\c1ccc(-c2ccccc2[N+](=O)[O-])o1)C(=O)Nn1cnnc1
  -7	-10

The list itself (from the top)
The line under a structure holds: NPYLR7 ag	NPYLR7 ag max-min
COc1cc(CN2CCn3nc(C(=O)NCCc4ccccn4)cc3C2=O)cc(OC)c1
  -4	-3
Clc1ccc2c(NN=Cc3cccnc3)ccnc2c1
  -2	-2
CN(Cc1ccc(Cl)s1)C(=O)CN(C)C1CCS(=O)CC1 (stereo not drawn)
  3	3
Cc1cc(I)ccc1NC(=O)CN(Cc1ccco1)C1CCS(=O)(=O)C1 (stereo not drawn)
  5	13
N#C/C(=C\c1ccc(-c2ccccc2[N+](=O)[O-])o1)C(=O)Nn1cnnc1
  -7	-10
O=C(c1cccs1)N1CCCC(c2nnc(Cc3ccc(F)cc3)o2)C1 (stereo not drawn)
  -5	2
CCC(CC)NC(=O)c1cc2c(nc3sccn32)s1
  7	4
COC(=O)C1CCCCN1Cc1cn[nH]c1-c1ccc(OC)c(F)c1 (stereo not drawn)
  -1	-2
CSC1CCCC1N(C)CCS(C)(=O)=O (stereo not drawn)
  35	34
COCCN(Cc1ccc2ccccc2n1)Cc1ccccc1F
  4	-4
O=C(c1ccccc1Cl)N1CCCC(OCc2cccc(F)c2F)C1 (stereo not drawn)
  -1	4
CCOC(=O)CSc1nc(C2CC2)cc(-c2ccc(OC)cc2)c1C#N
  8	7
CCCC(Sc1nnc(-c2cc(OC)cc(OC)c2)n1C1CCCCC1)C(=O)OCC (stereo not drawn)
  -12	-21
CCN(C(=O)c1cc2c(=O)n(C)c(=O)n(C)c2n1CCOC)c1ccccc1C
  -4	-5
COc1ccc(-c2nc3nc(-c4ccc(OC)c(OC)c4)cc(C(=O)O)c3[nH]2)cc1
  -2	-3
O=C(O)CC1C(=O)NC2(CCCC2)CN1C(=O)c1ccccc1F (stereo not drawn)
  17	13
O=C(NCCCOc1cccc([N+](=O)[O-])c1)c1ccccc1Oc1ccccc1
  -6	-13
O=C(C1CCCC1)N1CCCC(OCc2ccc(OC(F)(F)F)cc2)C1 (stereo not drawn)
  -6	-3
C#CC(C)(CC)OCC(O)CN1CCCC1 (stereo not drawn)
  0	1
COc1ccc(CCN(C)CCCC(C#N)(c2cc(OC)c(OC)c(OC)c2)C(C)C)cc1OC (stereo not drawn)
  4	-39
O=C(CC1COCCN1)NCc1cc(-c2ccccn2)no1 (stereo not drawn)
  7	5
CCOc1cccc(C=Nc2cc(C)on2)c1O
  -17	-24
NC(=O)N1CCC(C(=O)O)CC1
  17	31
CNC(=O)C1CCN(C(C)c2nc(C(C)(C)C)no2)CC1 (stereo not drawn)
  2	-2
CSc1nnc(C)c(=O)n1COC(=O)c1ccc(C)c(C)c1
  3	3
O=C1NC2(CCN(C(=O)C3CC3)CC2)Nc2cccc(Cl)c21
  -1	2
CC1=C[C@@H](CNC(=O)c2ccc(C#N)cc2)[C@H](C(C)C)C[C@H]1Cc1nnc(-c2ccncc2)o1
  -6	-9
COC(=O)COC(=O)c1cnc(-c2ccncc2)s1
  5	4
Nc1ccc2nn(-c3ccc(F)cc3)nc2c1
  11&6	12&5
Cc1ccc(C)c(OCCN(C)Cc2nc3ccccc3n2C)c1
  0	0

The line under a structure holds: NPYLR7 ag	NPYLR7 ag max-min
Cc1cn2c3c(=O)n(CC=Cc4ccccc4)c(=O)n(C)c3nc2n1Cc1ccco1
  1	1
Cc1ccccc1-n1nc2c(c1NC(=O)c1ccc(OC(C)C)cc1)CS(=O)C2 (stereo not drawn)
  0	-2
O=C(NCCCN1CCOCC1)c1cc(-c2ccccc2F)nc2cc(-c3ccccc3)nn12
  -12	-7
Cn1c(SCCN2CCOCC2)nc2sc3c(c2c1=O)CCCC3
  5	-1
Cc1cc(C)c2sc(N(Cc3ccccn3)C(=O)Cc3ccc(S(C)(=O)=O)cc3)nc2c1
  13	11
COc1ccc(/C=C2\SC(=S)N(CCC(=O)N3CCN(C)CC3)C2=O)cc1
  -8	-11
Cc1nn(CC(=O)c2cc(C)n(C(C)C)c2C)c(C)c1[N+](=O)[O-]
  -3	-3
CCOC(=O)c1ccsc1NC(=O)CN1CCn2cccc2C1C (stereo not drawn)
  -2	-2
CCn1c(CCC(=O)NCCOC)nc2cc(S(=O)(=O)N3CCOCC3)ccc21
  19	17
COC(=O)c1ccc(CN(CCN2CCOCC2)Cc2ccc(OC)c(OC)c2)o1
  -2	7
Cc1nc(C(C)(C)C)nc2sc(C(=O)NC3CC3)c(C)c12
  8	6
CCCc1nc(C)cc(N2CCNC(=O)CC2)n1
  8	7
COC(=O)CNC(=O)CSc1nnc(NCc2ccccc2)s1
  0	0
Cn1nnnc1SCc1ccc(C#N)cc1
  8	12
CC(=O)N1CCN(c2ccnc3c2c(=O)n(CC(=O)N2CCCCCC2)c(=O)n3C)CC1
  1	-1
CCN(Cc1ccc(-c2nc3ccccc3n2C)o1)C1CCS(=O)(=O)C1 (stereo not drawn)
  4	-4
CSc1nc2ccccc2n1CC(=O)N1CCOCC1
  -2	-3
Cc1cc(C)cc(-n2c(-c3sc4ncccc4c3N)n[nH]c2=S)c1
  -4	-7
Cc1ccc(N2CCN(Cc3ccc(F)cc3)C(C)C2=O)cc1C (stereo not drawn)
  -3	7
Cc1ccsc1[C@@H]1CCN(Cc2ccnn2-c2ccccc2)C[C@H]1O
  15	1
Cc1cc(NC(=O)CSCC(=O)N2CCN(c3cccc(Cl)n3)CC2)no1
  6	2
COc1ccccc1CNC(=O)CSc1nc2c(-c3ccccc3)c[nH]c2c(=O)n1C1CC1
  -1	-6
Cc1cc(N2CCN(C(=O)c3scc4c3CCCC4)CC2)nc(N)n1
  28	13
CCN1C(=O)N(C2Cc3ccccc3C2)C(=O)C12CCN(Cc1ccc(C#CC(C)(C)O)cc1)CC2
  0	-6
CC(C)Oc1ccc(C(=O)Nc2ccc3c(c2)oc(=O)n3C)cn1
  -22	-24
N#Cc1ccc(C(=O)Nc2nccn2Cc2ccccc2Cl)nc1
  5	4
COc1ccc([N+](=O)[O-])cc1C=C1C(=O)NC(=S)NC1=O
  -1	-12
Cc1nc([N+](=O)[O-])cn1CCC(=O)NOCc1ccccc1
  7	2
CC1CN(Cn2nc(Nc3ccccc3Cl)sc2=S)CC(C)O1 (stereo not drawn)
  6	2
COc1cc(F)ccc1-c1cnc(N)cn1
  4	3

Part of the list above in order of heavy-atom count, largest number first:
The line under a structure holds: NPYLR7 ag	NPYLR7 ag max-min
COc1ccccc1CNC(=O)CSc1nc2c(-c3ccccc3)c[nH]c2c(=O)n1C1CC1
  -1	-6
COC(=O)c1ccc(CN(CCN2CCOCC2)Cc2ccc(OC)c(OC)c2)o1
  -2	7
Cc1ccc(N2CCN(Cc3ccc(F)cc3)C(C)C2=O)cc1C (stereo not drawn)
  -3	7

Rewritten with each value named: 2 of the compounds above
> Cc1nc(C(C)(C)C)nc2sc(C(=O)NC3CC3)c(C)c12
  NPYLR7 ag = 8	NPYLR7 ag max-min = 6
> CCCc1nc(C)cc(N2CCNC(=O)CC2)n1
  NPYLR7 ag = 8	NPYLR7 ag max-min = 7

(more compounds)
The line under a structure holds: NPYLR7 ag	NPYLR7 ag max-min
CC(C)Cc1ccc(CN2CC[C@H](CO)[C@@H](O)C2)s1
  6	2
CCOc1ccc(/C=C2/SC(=S)NC2=O)cc1OC(=O)c1ccc(F)cc1
  -3	-4
CCCC(O)CN(Cc1nc2scc(-c3cccc(Cl)c3)c2c(=O)[nH]1)Cc1ccco1 (stereo not drawn)
  12	16
Cc1cc(S(=O)(=O)N2CCOCC2)c(C)cc1Br
  2	0
CCN(CC)C(=O)Oc1ccc2c(ccn2Cc2ccc(Br)cc2)c1-c1ccc(OC)c(OC)c1
  9	7
CC(=O)N1CSCC1C(=O)OCc1ccccn1 (stereo not drawn)
  0	-1
CC(c1ccccc1)N1CCN(C(=O)c2ccc(C#N)cc2)CC1 (stereo not drawn)
  -3	3
CCOC(=O)C1CCCN(CC(=O)N2N=C(c3ccc(C)cc3C)CC2c2ccc(OC)cc2OC)C1 (stereo not drawn)
  2	14
CCc1nc2c(OCC=C(C)C)cccn2c1N(C)C(=O)COc1ccccc1
  1	-11
CCNC(C)C(=O)N1c2ccccc2CCc2ccc(NC(=O)OCC)cc21 (stereo not drawn)
  -10	-15
CN(C)c1ccc(-c2cc(Nc3ccc(C(C)(C)C)cc3)ncn2)cc1
  -7	-5
CC(=O)NNc1nc(C)cc(=O)[nH]1
  5	3
Cc1ccc(C)c2[nH]c(=O)c(CCNC(=O)CCC3CCCCC3)cc12
  -2	7
O=C(c1ccc2c(c1)OCO2)N1CCN(c2nccc(-c3cccc(C(F)(F)F)c3)n2)CC1
  35	30
CN(C)c1ccc(CNC(=O)Nc2cc(C(F)(F)F)no2)cc1
  -6	-7
CC(=O)Oc1c(C)cc(CNC(C)Cn2cccn2)cc1C (stereo not drawn)
  13	-1
O=C(Cn1nc2c(c1NC(=O)c1cccs1)CSC2)NCc1ccccc1
  -6	1
NC1CCC(Nc2nccc(CCC(F)(F)F)n2)CC1 (stereo not drawn)
  0	-15
Cc1cn2c3c(=O)n(CCCc4ccccc4)c(=O)n(C)c3nc2n1CCN1CCOCC1
  -10	-10
CC(C)Oc1cc(C(=O)O)ccn1
  -1	0
O=C(NCc1cccc(F)c1)c1ccc(-c2cccc(Cl)c2)s1
  5	4
O=C(CC1COCCN1)NCCSc1ccccn1 (stereo not drawn)
  -4	-5
CN=c1scc(-c2ccccc2F)n1N=Cc1ccccc1O
  -1	-16
CCOC(=O)C(=O)N1CCN(Cc2cc(=O)c(OCc3ccc(C(C)(C)C)cc3)co2)CC1
  24	14
CC(C)C(NC(=O)CN1CCSC1=O)c1ccc(C2CCCCC2)cc1 (stereo not drawn)
  8	5
CSc1nn(CC(=O)Nc2ccc(Cl)cc2)c(N)c1S(=O)(=O)c1ccccc1
  -1	-4
CCn1c(SCC(=O)N(C)CC(=O)N(C)C)nc2ccccc21
  0	-8
O=C(NCC1CCCN(C(=O)CCN2CCCO2)C1)c1ccc(-c2ccccc2)cc1 (stereo not drawn)
  -3&9	-11&1
CCCCCN(CC(=O)N1CCc2sccc2C1c1ccc(Cl)cc1Cl)C(=O)c1cccs1 (stereo not drawn)
  22	13
CCOc1ccc(C(=O)NNc2ccccc2C(F)(F)F)cn1
  7	7

The line under a structure holds: NPYLR7 ag	NPYLR7 ag max-min
CN(CCc1cnn(C)c1)Cc1nc(-c2cccc(Cl)c2)no1
  2	-2
COC(=O)c1c(C)[nH]c(C(=O)OCC(=O)c2cccc(F)c2)c1C
  -13	-14
CC(NC(=O)CCSc1ccccc1)c1ccc(-n2cncn2)cc1 (stereo not drawn)
  -10	-12
CCC1CN(c2ncccc2C(=O)Nc2ccc(Br)cc2)CCO1 (stereo not drawn)
  5	4
CN(CC(=O)Nc1c(Cl)cccc1Cl)C(=O)CCn1cnc2ccccc2c1=O
  0	6
Cc1c(C(=O)NC(C)C)oc2c1-c1[nH]ncc1CC2
  0	-4
CCOCC1CCN(Cc2ccc(C(=O)OC)o2)CC1
  5	3
Cc1ccc(N=Nc2c(C)[nH]n(-c3nc(-c4cccc([N+](=O)[O-])c4)cs3)c2=O)cc1Br
  -5	-7
NS(=O)(=O)c1ccccc1NS(=O)(=O)c1ccc(OC(F)(F)F)cc1
  -1	-5
Cc1cc2c(=O)n(NC(=O)C(C)n3nc(C(F)F)c(Cl)c3C)c(C)nc2s1 (stereo not drawn)
  5	36
CCCS(=O)(=O)NC1CCN(C(=O)NCc2ccc(OC)cc2)CC1
  10	5
CN(C)C(=O)CN1CCN(C(=O)CSc2nnnn2C2CCCCC2)CC1
  11	6
C=CCOC(=O)C1=C(C)NC(=O)NC1c1ccccc1Cl (stereo not drawn)
  -13	-15
CCCc1c(C)nn(-c2ccc(C(=O)Nc3ccc(OC)nc3)cc2)c1C
  -3	-9
Cc1ccccc1-c1noc(CNCCc2c[nH]c3c(C)cccc23)n1
  15	7
O=C(CO/N=C\c1ccccc1Cl)N=Nc1c(O)n(CN2CCCC2)c2ccccc12
  4	3
Cc1ccc(OCC(=O)n2nc(C)c(Sc3ccccc3[N+](=O)[O-])c2C)cc1
  -8	-11
CC1(C)NC(=O)N(CC(=O)O)C1=O
  4	12
CCCNC(=O)C(C)NC(=O)c1ccc(Cn2nc(C)c([N+](=O)[O-])c2C)cc1 (stereo not drawn)
  2	4
CCC(C(=O)OC)N(C(=O)c1ccc(C#N)cc1)c1ccccc1 (stereo not drawn)
  10	6
CCCCc1ccc(S(=O)(=O)c2cnc(SCC(=O)Nc3ccc(F)cc3)[nH]c2=O)cc1
  -2	-9
C=CCN(CC(=O)N1CCc2sccc2C1c1ccccc1C)S(C)(=O)=O (stereo not drawn)
  -1	2
COc1ccc(S(=O)(=O)Oc2cccc(CN(C(=O)NC(C)C)C(C)C)c2)cc1
  9	4
Cc1c(Cl)c(C(F)(F)F)nn1CC(N)=O
  2	1
COC(=O)[C@@H]1CCCN1C(=O)Cc1ccc(N2CCC(NC3Cc4ccccc4C3)CC2)cc1
  19	6
CC(C)(C)c1cc(NCCCN2CCOCC2)n2ncc(-c3ccccc3)c2n1
  1	4
COc1ccc(O)c(C=Nn2c(C)csc2=NC(C)C)c1
  1	2
COc1ccc(-c2nnc3c4cnn(-c5ccccc5Cl)c4ncn23)cc1
  1	1
O=C(OCCNC1=C(n2nnc3ccccc32)C(=O)c2ccccc2C1=O)c1ccccc1
  16	15
Cc1ccc(S(=O)(=O)NC(=O)c2c(C)cc3ccccn23)cc1
  4	2
Cc1cc(CN2CC[C@@H](c3ccc4c(c3)OCO4)[C@H](O)C2)sc1C
  0	1

An excerpt; the hit share may differ from the screen's.
